DUX4 inh = blocks DUX4-driven transcriptional activation. 293T-iDUX4 ZSCAN4-Gaussia luciferase reporter, 24 h; hits give low values. activity change, negative = inhibition, % (no concentration beside the values). actives 0.8% (n = 37,000). AID 1224904;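 active = -10% or lower and over 25 points stronger than a control reporter; inconclusive = -10% or lower with a smaller gap; inactive = above -10%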;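 also: 0% = median of neutral control wells and -100% = median of positive control wells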
DUX4 inh difference = recorded beside DUX4 inh, whose call it bears; Gaussia minus Italica difference, %; measured here: selective DUX4 reporter inhibition;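 worked out from the two reporters; negative = selective loss of the DUX4 reporter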
DUX4 inh control = second read-out of DUX4 inh, no call of its own (marks repeat the call); activity change, negative = inhibition, %; measured here: Italica tet-on control reporter;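 0 = neutral control and -100 = positive control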
An asterisk follows results filed as active; ? = inconclusive; · = not tested or not shown; & = joins results of further samples. This is a subset; the hit share may differ from the screen's.

The line under a structure holds: DUX4 inh	DUX4 inh difference	DUX4 inh control
COc1cccc(CN2[C@@H]3CN(C(=O)c4ccncc4)c4ccccc4[C@@H]3[C@@H]2CO)c1
  1	-4	4.1
COC(=O)C[C@@H]1CC[C@@H]2[C@H](COC[C@@H](O)CN2CCC(F)(F)F)O1
  4	-1	5.2
Cc1ccccc1S(=O)(=O)N[C@H]1CC[C@@H](CCn2cc(-c3ccc(F)cc3)nn2)O[C@H]1CO
  3	8	-5.1
C[C@H](CO)N1C[C@H](C)[C@H](CN(C)CC2CC2)Oc2cc(C#Cc3ccncc3)ccc2S1(=O)=O
  -5	-3	-1.1
C/C=C/c1ccc([C@H]2[C@@H](CO)N[C@@H]2CNC(=O)C2CC2)cc1
  0	-3	2.6
CC(C)NC(=O)N1CC2(C1)[C@H](c1ccccc1)[C@@H](CO)N2C(=O)C1CC1
  10	7	2.6
O=C(C1CCC1)N1C[C@@H]2[C@H](c3ccccc31)[C@H](CO)N2S(=O)(=O)c1ccccc1
  -4	-1	-3.4
COc1ccc2c3c([nH]c2c1)[C@H](CO)N(Cc1ccccc1Cl)CC31CN(C(C)=O)C1
  ?	·	·
COc1ccccc1NC(=O)N[C@@H]1CC[C@@H](CC(=O)N[C@@H](C)c2ccccc2)O[C@H]1CO
  -3	0	-2.5
COc1ccccc1NC(=O)Nc1ccc2c(c1)C(=O)N(C)C[C@@H](OC)[C@@H](C)CN[C@H](C)CO2
  3	9	-5.9
C[C@H](CO)N1C[C@H](C)[C@H](CN(C)S(C)(=O)=O)Oc2cc(-c3ccncc3)ccc2S1(=O)=O
  -1	-3	2.2
CN(C)C(=O)c1ccc(-c2ccc3c(c2)[C@@H]2[C@@H](CCN2C(=O)Cc2ccccn2)[C@@H](CO)N3C)cc1
  -4	-7	2.7
CCCNC(=O)N1[C@@H]2CNC[C@H]1C2c1ccc(-c2cccnc2)cc1 (stereo partly drawn)
  11&13	13&0	-1.5&13
COc1cccc(S(=O)(=O)Nc2ccc3c(c2)[C@@H]2C[C@@H](CC(=O)NCc4cccc(F)c4)O[C@H](CO)[C@@H]2O3)c1
  -1	10	-11
CCS(=O)(=O)N1CCC2(CC1)CN(S(=O)(=O)c1cccc(OC)c1)[C@@H](CO)c1[nH]c3cc(OC)ccc3c12
  -6	-8	2.9
COc1ccc(CNC(=O)N(C)C[C@@H]2OCc3ccccc3-c3c(n(C)c4ccccc34)C(=O)N([C@@H](C)CO)C[C@@H]2C)cc1
  ?	·	·
COCC(=O)N1CC(=O)N2[C@@H](CO)[C@@H](c3ccc(-c4cccnc4)cc3)[C@@H]2C1
  9	0	9.0
C[C@H]1CN([C@@H](C)CO)C(=O)c2c(c3ccccc3n2C)-c2ccccc2CO[C@H]1CN(C)C(=O)[C@@H]1CCCN1C
  4	3	1.4
CC=Cc1ccc2n(c1=O)C[C@H]1[C@H](CO)[C@@H](C(=O)Nc3ccc(-c4ccccc4)cc3)[C@@H]2N1C (mixture of isomers)
  ?	·	·
O=C(C[C@H]1CC[C@H]2[C@@H](COC[C@@H](O)CN2C(=O)c2cnccn2)O1)NCc1ccc(Oc2ccccc2)cc1
  2	4	-2.1
C[C@@H]1CCCCO[C@@H](CN(C)S(=O)(=O)c2cn(C)cn2)[C@H](C)CN([C@H](C)CO)C(=O)c2cc(NC(=O)Nc3cccc4ccccc34)ccc2O1
  7	4	2.1
CCCC#Cc1ccc([C@H]2[C@@H](CO)N(C(C)=O)[C@H]2CNC(=O)C2CC2)cc1
  -3	-6	2.4
COc1ccc(NC(=O)Nc2ccc3c(c2)C(=O)N([C@@H](C)CO)C[C@@H](C)[C@H](CN(C)C(=O)c2ccccc2)OCCCC[C@@H](C)O3)cc1
  -4	10	-14
C[C@H]1CN([C@@H](C)CO)C(=O)c2cc(NC(=O)Nc3cccc4ccccc34)ccc2O[C@@H]1CN(C)C(=O)NC1CCCCC1
  -3	-1	-1.8
CN(C)C(=O)c1cccc(-c2ccc3c(c2)[C@@H]2[C@@H](CCN2C(=O)Cc2ccccc2)[C@H](CO)N3)c1
  3	9	-6.4
CN(C)CC#Cc1ccc([C@H]2[C@H]3CN(C(=O)Cc4ccccc4)CC(=O)N3[C@H]2CO)cc1
  13	11	1.4
CCNC(=O)[C@@H]1[C@@H](CO)[C@@H]2Cn3c(ccc(-c4ccccc4)c3=O)[C@@H]2N1C(=O)C1CC1
  2	-3	5.2
C[C@@H]1CN([C@H](C)CO)C(=O)c2cc(C#CC3(O)CCCC3)cnc2O[C@@H]1CN(C)C(=O)Cc1ccncc1
  -4	-4	-0.1
CO[C@@H]1CC[C@H]2CCOc3c(C#N)cccc3C(=O)N(C)C[C@@H](c3ccccc3)CC(=O)N(C)C[C@@H]1O2
  -5	1	-5.8
O=C(C[C@H]1CC[C@@H](NC(=O)Nc2ccc(F)cc2)[C@@H](CO)O1)NCCN1CCCC1
  -1	-1	0.5
CCCN(C)C[C@@H]1OCCCC[C@@H](C)Oc2ccc(NC(=O)Nc3ccc4c(c3)OCO4)cc2C(=O)N([C@H](C)CO)C[C@H]1C
  2	2	-0.2
O=C(c1ccccc1F)N1CC(=O)N2[C@H](CO)[C@@H](c3ccc(C#Cc4ccccc4)cc3)[C@@H]2C1
  ?	·	·
CC(C)NC(=O)N1CC[C@H]2[C@@H]1c1cc(Br)ccc1N(C)[C@H]2CO
  26	15	11
COc1ccccc1NC(=O)N[C@H]1CC[C@H](CC(=O)N[C@@H](C)c2ccccc2)O[C@@H]1CO
  2	5	-3.3
COc1cccc(-c2ccc3c(c2)[C@H]2[C@H](CCN2C(=O)c2cccc(F)c2)[C@@H](CO)N3)c1
  ?	·	·
NCC[C@H]1CC[C@H](NC(=O)NC2CCCCC2)[C@@H](CO)O1
  1	5	-3.4
C[C@H](NC(=O)C[C@@H]1CC[C@H]2[C@@H](COC[C@H](O)CN2Cc2cc(F)ccc2F)O1)c1ccccc1
  5	7	-1.6
O=C(C[C@@H]1CC[C@H]2[C@@H](COC[C@@H](O)CN2C(=O)Nc2ccc(Cl)cc2)O1)NCc1ccncn1
  11	0	11
CCCN1C[C@H](C)[C@@H](OC)CN(C)C(=O)c2ccc(NC(=O)C3CCOCC3)cc2OC[C@@H]1C
  -6	-5	-1.1
COc1ccc2c3c([nH]c2c1)[C@@H](CO)N(C(=O)NC(C)C)CC31CCN(C(=O)NC2CCCC2)CC1
  11	16	-5.4
Cc1ccccc1S(=O)(=O)N(C)C[C@@H]1OCc2ccccc2-c2ccccc2C(=O)N([C@@H](C)CO)C[C@@H]1C
  ?	·	·
C[C@H]1CN([C@@H](C)CO)C(=O)c2ccccc2-c2ccccc2CO[C@@H]1CN(C)C(=O)Nc1ccccc1C(F)(F)F
  -2	-1	-1.0
N#C[C@H]1[C@H](c2ccccc2-c2cccc(F)c2)[C@@H](CO)N1C(=O)Cc1cccnc1
  6	4	2.1
CCC(=O)N[C@H]1C=C[C@@H](CC(=O)OC)O[C@@H]1CO
  10	10	0.4
CCCNC(=O)N1[C@@H](CO)[C@@H](c2ccccc2)C12CN(C(=O)CC1CC1)C2
  4	2	1.7
OC[C@@H]1[C@@H](c2ccc(-c3ccccc3F)cc2)[C@@H]2CN(Cc3cccnc3)CCCCN12
  ?	·	·
CC(C)C(=O)Nc1ccc2c(c1)C(=O)N(C)[C@@H]1CC[C@H](CC(=O)NCCc3ccccc3)O[C@H]1CO2
  -2	-2	0.0
OC[C@@H]1[C@@H](c2ccccc2)C2(CN(CC3CC3)C2)N1Cc1cncnc1
  6	3	3.2
CN(C)C(=O)c1ccc(-c2ccc([C@H]3[C@@H](C#N)N(C(=O)C4CCCCC4)[C@H]3CO)cc2)cc1
  2	1	1.3
O=C(Cc1ccccn1)N1CC2(C1)[C@H](c1ccccc1)[C@@H](CO)N2C(=O)c1ccccc1
  2	-4	6.1
O=C(C[C@H]1CC[C@H](NC(=O)C2CC2)[C@H](CO)O1)Nc1ccccc1
  2	3	-0.8
COc1ccccc1CN(C)C[C@@H]1OCc2cnnn2CCCC(=O)N([C@@H](C)CO)C[C@H]1C
  -2	-2	0.1
O=C(C[C@H]1CC[C@@H]2[C@H](COC[C@H](O)CN2Cc2ccc(F)cc2)O1)NCCc1ccccc1
  3	-2	4.3
COc1ccc(C#Cc2ccc3c(c2)O[C@H](CN(C)S(=O)(=O)c2ccccc2F)[C@@H](C)CN([C@@H](C)CO)S3(=O)=O)cc1
  -2	-3	1.2
C[C@H]1CN([C@@H](C)CO)S(=O)(=O)c2ccc(-c3ccc(F)cc3)cc2O[C@@H]1CN(C)Cc1ccccc1C(=O)O
  -2	-2	-0.2
O=C(N[C@H]1CC[C@H](CCNS(=O)(=O)c2ccccc2Cl)O[C@@H]1CO)c1ccc(F)cc1
  3	-2	5.5
CC=Cc1ccc2n(c1=O)C[C@H]1[C@H](CO)[C@@H](C(=O)NCC(F)(F)F)N(CC3CC3)[C@@H]21 (mixture of isomers)
  6	2	4.0
CCNC(=O)[C@@H]1[C@@H](CO)[C@@H]2Cn3c(ccc(-c4cncnc4)c3=O)[C@@H]2N1C(=O)c1ccccc1F
  4	5	-1.0
CN1CCN(C(=O)C[C@H]2CC[C@H](NC(=O)c3ccc4c(c3)OCO4)[C@H](CO)O2)CC1
  6	5	0.9
CN(C)CC#Cc1ccc([C@H]2[C@H]3CN(C(=O)Nc4ccc(F)cc4)CCCCN3[C@H]2CO)cc1
  11	-5	17

Further compounds follow:
The line under a structure holds: DUX4 inh	DUX4 inh difference	DUX4 inh control
O=C([C@@H]1N[C@@H]2c3ccc(-c4ccc(F)cc4)c(=O)n3C[C@@H]2[C@H]1CO)N1CCOCC1
  -1	3	-3.8
CNC[C@@H]1Oc2ncc(C#Cc3ccccc3F)cc2C(=O)N([C@H](C)CO)C[C@@H]1C
  -1	-1	-0.7
CN(C)CC(=O)N1CCCCN2[C@H](CO)[C@H](c3ccc(-c4ccccc4)cc3)[C@@H]2C1
  20	11	8.6
CC(=O)NC[C@H]1[C@@H](c2ccc(C#CC(C)C)cc2)[C@@H](CO)N1Cc1ccccn1
  2	4	-1.6
COc1ccc(OC(=O)N(C)C[C@H]2OCc3ccccc3-c3ccccc3C(=O)N([C@@H](C)CO)C[C@@H]2C)cc1
  12	9	3.4
O=C(C[C@@H]1CC[C@@H]2[C@H](COC[C@H](O)CN2CCC(F)(F)F)O1)NCC1CC1
  0	0	-0.5
COCC(=O)N1CC2(C1)[C@H](c1ccc(-c3cccc(C)c3)cc1)[C@@H](CO)N2C(=O)C1CC1
  -3	5	-7.7
CCN1[C@@H]2c3ccc(/C=C/c4ccccc4)c(=O)n3C[C@H]1[C@H](CO)[C@H]2C(=O)NC1Cc2ccccc2C1
  -4	3	-7.2
COCC#Cc1ccc([C@H]2[C@H]3CN(Cc4ccncc4)CCCCN3[C@H]2CO)cc1
  11	3	7.6
C[C@H]1CN([C@@H](C)CO)S(=O)(=O)c2ccc(Br)cc2O[C@H]1CN(C)C(=O)CCN1CCCCC1
  1	-5	5.5
O=C(O)C[C@H]1CC[C@@H](NC(=O)CCN2CCCCC2)[C@H](CO)O1
  -3	-7	4.6
CCCC#Cc1ccc2c(c1)O[C@@H](CN(C)C(=O)Nc1ccc(OC)cc1)[C@@H](C)CN([C@@H](C)CO)S2(=O)=O
  -1	1	-1.8

Quoted from the listing for reference:
The line under a structure holds: DUX4 inh	DUX4 inh difference	DUX4 inh control
CN(C)CC#Cc1ccc([C@H]2[C@H]3CN(C(=O)Cc4ccccc4)CC(=O)N3[C@H]2CO)cc1
  13	11	1.4
CCNC(=O)[C@@H]1[C@@H](CO)[C@@H]2Cn3c(ccc(-c4ccccc4)c3=O)[C@@H]2N1C(=O)C1CC1
  2	-3	5.2
C[C@@H]1CN([C@H](C)CO)C(=O)c2cc(C#CC3(O)CCCC3)cnc2O[C@@H]1CN(C)C(=O)Cc1ccncc1
  -4	-4	-0.1
CO[C@@H]1CC[C@H]2CCOc3c(C#N)cccc3C(=O)N(C)C[C@@H](c3ccccc3)CC(=O)N(C)C[C@@H]1O2
  -5	1	-5.8
O=C(C[C@H]1CC[C@@H](NC(=O)Nc2ccc(F)cc2)[C@@H](CO)O1)NCCN1CCCC1
  -1	-1	0.5
CCCN(C)C[C@@H]1OCCCC[C@@H](C)Oc2ccc(NC(=O)Nc3ccc4c(c3)OCO4)cc2C(=O)N([C@H](C)CO)C[C@H]1C
  2	2	-0.2
O=C(c1ccccc1F)N1CC(=O)N2[C@H](CO)[C@@H](c3ccc(C#Cc4ccccc4)cc3)[C@@H]2C1
  ?	·	·
CC(C)NC(=O)N1CC[C@H]2[C@@H]1c1cc(Br)ccc1N(C)[C@H]2CO
  26	15	11
COc1ccccc1NC(=O)N[C@H]1CC[C@H](CC(=O)N[C@@H](C)c2ccccc2)O[C@@H]1CO
  2	5	-3.3
COc1cccc(-c2ccc3c(c2)[C@H]2[C@H](CCN2C(=O)c2cccc(F)c2)[C@@H](CO)N3)c1
  ?	·	·
NCC[C@H]1CC[C@H](NC(=O)NC2CCCCC2)[C@@H](CO)O1
  1	5	-3.4
